Screening results: PubChem, ICCB-Longwood Screening Facility, Harvard Medical School
Anaer choline gr: choline-fed anaerobic bacterial growth inhibition. calls only. Gram-negative bacterium anaerobic choline minimal medium, absorbance growth; stronger effect = lower value; many inactives read as strong as hits in the columns shown. 55,000 compounds, 0.2% hits. AID 1963822;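 active = growth z-score on choline under -2 at 7 or 20 h with little or no fall on glycerol, limits in tiers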;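 also: stock transfer was 300 nL into about 50 µL; the organism is E. coli; final concentration not given here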
Anaer choline gr early: further read-out of Anaer choline gr, marked with its call; z-score; measured here: choline growth z-score, timepoint 1;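 score of optical density at 7 h as mean of two plates; lower means less growth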
* hit, by the source's call; i = inactive; & = joins results of further samples. Only part of the results is shown; count on the stated rates, not on these rows.

SMILES | Anaer choline gr | Anaer choline gr early
CCc1ccc(NC(=O)N2CCSc3ncccc32)cc1 | i | 0.02
O=C(NCc1csc(-c2ccccc2)n1)[C@H]1CSCN1C(=O)c1ccccc1F | i | -0.5
O=C(c1csc(-c2cccnc2)n1)N1CCCCC1 | i | -0.46
CN1CC(=O)N(CC(=O)Nc2nc3ccc(Cl)cc3s2)c2ccccc2C1=O | i | -0.56
Cc1ccccc1C1CC(=O)Nc2n[nH]c(C)c21 (stereo unspecified) | i | -2.3
CC(=O)N1CCC(C(=O)NCc2ccccc2)(N(C(=O)c2ccc(C)cc2)c2ccc(F)cc2F)CC1 | i | -0.67
Cc1nn2c3c(cnc2c1-c1ccc(F)cc1)C(=O)CC(c1cccc(Cl)c1)C3 (stereo unspecified) | i | 0.45
Cc1nnc(N2CCCC(C(=O)NCc3ccc(F)cc3)C2)c2nn(-c3ccc(Cl)cc3)c(C)c12 (stereo unspecified) | i | 0.07
O=S(=O)(NCc1cccn1Cc1ccccc1)c1ccc(F)c(Cl)c1 | i | 2
Cc1nc(-c2csc(S(=O)(=O)N3CCCC(C(=O)NC4CCCCC4)C3)c2)no1 (stereo unspecified) | i | -0.77
CC(=O)N1N=C(c2ccccc2C)OC1c1cc(-c2ccccc2)nc2ccccc12 (stereo unspecified) | i | -0.16
Cc1ccc(N2CC(C(=O)N3CCN(c4ccc(-c5noc(C6CCC6)n5)cc4)CC3)CC2=O)cc1 (stereo unspecified) | i | 0.86
CCCCCCCNC(=O)C1CCN(c2ncc(-c3cccc(C)c3)cn2)CC1 | i | 0.97
O=C(NCc1ccc2c(c1)OCO2)C1CCN(c2ccc(-c3ccc(F)cc3)nn2)CC1 | i | 2.2
CCN(CC)S(=O)(=O)c1ccc2c(c1)cc(C(=O)NCCc1c[nH]c3ccc(OC)cc13)n2C | i | 1.4
Cc1cc(N)n(C)n1 | i | 0.59
Cn1c(=O)c(-c2noc(CCC(=O)Nc3ccccc3Cl)n2)nn(-c2ccccc2)c1=O | i | 0.95
Cc1cc(C)c2c(n1)sc1c(=O)n(-c3cccc(C(=O)Nc4ccc(C(C)C)cc4)c3)cnc12 | i | -0.06
COCCN1CCC(N2CCCN(S(=O)(=O)c3ccc(C)cc3)CC2)C1=O (stereo unspecified) | i | 0.06
O=C(Cn1nc2n(Cc3ccccc3)c(=O)c3ccccc3n2c1=O)c1ccc(Br)cc1 | i | -0.5
Cc1cc2nc(C)c(=O)n(CC(=O)NC3CCS(=O)(=O)C3)c2cc1C (stereo unspecified) | i | -0.04
CCn1c(SCC(=O)Nc2ccc3c(c2)OCO3)nnc1-c1cn(C)nc1-c1ccc(Cl)cc1 | i | -0.35
Cc1cc(C)cc(-n2ncc3c(N(CCO)c4ccccc4)ncnc32)c1 | i | -0.31
O=S(=O)(c1cc(-c2nc(-c3ccc(Cl)cc3)no2)cs1)N1CCc2ccccc21 | i | -1
COc1cccc(Sc2ccc(N3CCCC(C(=O)NCc4ccc5c(c4)OCO5)C3)nn2)c1 (stereo unspecified) | i | 0.35
CCc1nc(-c2ccc(C)c(S(=O)(=O)N3CCC(C(=O)Nc4nc5ccc(C)cc5s4)CC3)c2)no1 | i | 1.5
C=Cc1ccc(CSC2=Nc3ccccc3NC(CC(=O)OCC)=C2)cc1 | i | 0.98
COc1cc(CCC(C)=O)ccc1O | i | 0.34
Cc1ccc(Nc2ncnc3sc(C(=O)O)c(C)c23)cc1F | i | -0.26
CCc1nc(-c2cc(S(=O)(=O)N3CCC(C(=O)Nc4ccccc4OC)CC3)c(C)s2)no1 | i | -0.79
CCOc1ccccc1-c1nc(COc2ccccc2-c2nnc(-c3ccccc3)o2)c(C)o1 | i | 2
CC(C)c1cccc(NC(=NCc2ccncc2)NC(=O)c2ccc(CN3CCOCC3)cc2)c1 | i | 0.27
COc1cc(=O)n(-c2ccccc2C)nc1C(=O)NC(c1ccccc1)c1ccccc1 | i | -1.8
C=CCNc1nc(Nc2cccc(F)c2)c2cnn(-c3ccccc3)c2n1 | i | 2
Cc1ccc(S(=O)(=O)Nc2ccccc2-c2ccc3cc(C)ccc3n2)cc1 | i | 0.88
O=C(NC1CCCC1)C1CCCN(c2ccc3cc(S(=O)(=O)N4CCCC4)ccc3n2)C1 (stereo unspecified) | i | 0.34
CCOC(=O)c1c(NC(=O)c2ccc(S(=O)(=O)N(C)C)cc2)sc2c1CCN(C)C2 | i | -0.19
Cc1c(-c2nc(-c3ccccn3)no2)oc2ccc(S(=O)(=O)N3CCOCC3)cc12 | i | -0.67
CN(C)c1ccc(C(CNC(=O)CN2C(=O)c3ccccc3C2=O)N2CCc3ccccc3C2)cc1 (stereo unspecified) | i | -0.45
COC(=O)c1cc2ccsc2n1CC(=O)Nc1ccc(F)cc1 | i | -0.59
Cc1nn2cnnc2c(C)c1CCC(=O)Nc1ccc(F)cc1F | i | -1.2
Cc1nn(CCCC(=O)NCc2ccc3c(c2)OCO3)c(=O)c2c(-n3cccc3)n(-c3ccccc3)nc12 | i | -0.06
COc1ccc(NC(=O)c2cnn(-c3ccc(Br)cc3)c2)c(OC)c1 | i | -0.09
Cc1nc2ccccc2c(=O)n1-c1ccc(NC(=O)c2ccc(F)cc2Cl)cc1 | i | 0.72
CN1C(c2ccc(Br)cc2)=NN=C(c2ccccc2)c2cc(Cl)ccc21 | i | 0.12
O=C(Nc1nccs1)c1ccccc1-c1nc(-c2ccc(Cl)cc2)no1 | i | -0.37
Cc1cccc(C(=O)N2CCN(c3ncnc4c3c(-c3ccccc3)cn4-c3ccccc3)CC2)c1 | i | -1.8
Cc1cc(-c2ccccc2)nc(SCc2cn3c(C)cc(C)nc3n2)n1 | i | 1.1
O=C(Cn1nc2ccc(SCc3ccc(Cl)cc3)nn2c1=O)Nc1ccccc1 | i | 0.31
CN(CC1CCCO1)S(=O)(=O)c1ccc(C(=O)Nc2nc(-c3ccncc3)cs2)cc1 (stereo unspecified) | i | -0.44
Next results follow:
SMILES | Anaer choline gr | Anaer choline gr early
CCc1ccc(NC(=O)NCc2cccn2Cc2ccccc2)cc1 | i | 0.87
C=CC[C@H](N)C(=O)O | i | -0.12
Cc1ccc(NC(=O)CN(C)S(=O)(=O)c2ccc3nc(-c4ccccc4)[nH]c3c2)cc1 | i | -0.89
CN1CCN(c2ncc3c(n2)CC(c2cc(F)cc(F)c2)CC3=O)CC1 (stereo unspecified) | i | 0.78
Cc1cc(N(C)C)nc(N2CCC(C(=O)O)CC2)n1 | i | -0.11
O=S(=O)(Nc1ccc(Cn2cncn2)cc1)c1ccc(Br)cc1 | i | -0.24
CCOc1ccccc1-n1cc[nH]c(=O)c1=O | i | -0.06
Cn1nc(COCc2ccccc2)c2c1CCN(S(=O)(=O)c1ccc(C(C)(C)C)cc1)C2 | i | 0.35
Cc1ccc(C)c(CSc2nnc3c(S(=O)(=O)N4CCCCC4)cccn23)c1 | i | -0.68
CCOC(=O)c1nc2ccccc2nc1NCc1ccc2c(c1)OCO2 | i | 2.1
COc1ccc(NS(=O)(=O)c2cc3[nH]c(=O)[nH]c3cc2Cl)c(OC)c1 | i | -0.19
COc1ccc(CC(=O)NCCc2nc(-c3ccccc3)n[nH]2)cc1 | i | -0.65
CN(C)c1ccc(C(CNC(=O)c2ccccc2Br)N(C)C)cc1 (stereo unspecified) | i | 0.53
COc1ccc(NC(=O)C2CCCN(S(=O)(=O)Cc3ccccc3C)C2)cc1OC (stereo unspecified) | i | 1.7
NC(=O)CCCCn1ccc(NC(N)=NCC(F)(F)F)n1 | i | 0.02
O=S(=O)(Nc1ccc(-c2ccc(N3CCCCC3)nn2)cc1)c1ccc2c(c1)CCCC2 | i | -0.72
COc1ccc(NC(=O)NCCc2c(C)nn(C)c2C)cc1OC | i | -0.8
C#CCOc1ccc(C2CC(=O)Nc3c2cnn3-c2nc3ccccc3s2)cc1OC (stereo unspecified) | i | 1.3
O=S(=O)(c1cccn2c(SCc3ccncc3)nnc12)N1CCN(c2ccc(F)cc2)CC1 | i | 0.01
C=C(C)Cn1c(C2CCCO2)nc2ccccc21 (stereo unspecified) | i | -0.19
CCCOc1ccc(-c2nnc3sc(-c4ccncc4)nn23)cc1 | i | -1.2
CCOC(=O)Cc1ccc(NC(=O)N2CCSc3ccccc32)cc1 | i | -1.1
Cc1ccc(Cl)cc1NC(=O)c1cnn2c1NC(c1ccc(Br)cc1)=CC2c1ccccc1 (stereo unspecified) | i | -0.7
O=C(Nc1ccc(Cl)cc1)C1CCN(c2nnc(-n3cccc3)s2)CC1 | i | -0.26
Clc1cccc(Nc2nnc(-c3ccccc3)c3ccccc23)c1 | i | 0.37&-1
Cc1cc(C(Nc2ccccn2)c2ccccn2)c(NC(=O)c2ccccc2)s1 (stereo unspecified) | i | 0.87
CCCn1c(Cn2ccnc2C)nc2cc(NC(=O)c3ccccc3)ccc21 | i | 0.57
O=C(Cn1ccn2nc(-c3ccc4c(c3)OCO4)cc2c1=O)Nc1ccc(F)cc1F | i | 0.48
CN(C)CCNC(=O)CN1CCN(c2cc(C(=O)O)c3cc(NC(=O)C4CC4)ccc3n2)CC1 | i | -0.15
CC(C)n1cnc2c(-c3ccccc3)csc2c1=O | i | 0.41

Three compounds from above, arranged by molecular weight, falling.
SMILES | Anaer choline gr | Anaer choline gr early
Cc1cc(C(Nc2ccccn2)c2ccccn2)c(NC(=O)c2ccccc2)s1 (stereo unspecified) | i | 0.87
CCCn1c(Cn2ccnc2C)nc2cc(NC(=O)c3ccccc3)ccc21 | i | 0.57
CCCOc1ccc(-c2nnc3sc(-c4ccncc4)nn23)cc1 | i | -1.2

New compounds follow
SMILES | Anaer choline gr | Anaer choline gr early
O=C(NCC1CCCO1)N1CCN(C(=O)c2nsc3ccccc23)CC1 (stereo unspecified) | i | 1.8
Cc1cc(C(=O)N2CCC(Nc3ncnc4c3CCC4)C2)nn1C (stereo unspecified) | i | -0.31
Cc1ccc(CSc2nc3c(c(=O)[nH]2)CN(Cc2ccc(F)cc2)CC3)cc1 | i | 1.6
Cc1cccc(NC(=O)CSc2nc(-c3sc(-c4ccc(Cl)cc4)nc3C)cc(=O)[nH]2)c1 | i | -1.2
CC(C)c1ccc(-c2cc(-c3nc4c5ccccc5ncn4n3)[nH]n2)cc1 | i | 0.22
CCc1ccc(CNC(=O)C2=C(c3ccccc3)c3cc(Cl)ccc3S(=O)(=O)N2C)cc1 | i | 0.25
CCOC(=O)c1[nH]c(C)c(CCC(=O)N2CCCC(C(=O)NCCCOC)C2)c1C (stereo unspecified) | i | 0.43
CNC(=O)CSc1nc2c(cnn2-c2ccccc2)c(=O)[nH]1 | i | 0.8
O=C(NCc1ccccc1Cl)c1ccc(NC(=O)N2CCSc3ncccc32)cc1 | i | -0.38
COc1cc(C2Nc3ccc(F)cc3[C@H]3OCC[C@@H]23)cc(Br)c1OC (stereo partly specified) | i | -0.66

7 entries from above, with tabs.
structure	Anaer choline gr	Anaer choline gr early
COc1ccc(CC(=O)NCCc2nc(-c3ccccc3)n[nH]2)cc1	i	-0.65
CN(C)c1ccc(C(CNC(=O)c2ccccc2Br)N(C)C)cc1 (stereo unspecified)	i	0.53
COc1ccc(NC(=O)C2CCCN(S(=O)(=O)Cc3ccccc3C)C2)cc1OC (stereo unspecified)	i	1.7
NC(=O)CCCCn1ccc(NC(N)=NCC(F)(F)F)n1	i	0.02
O=S(=O)(Nc1ccc(-c2ccc(N3CCCCC3)nn2)cc1)c1ccc2c(c1)CCCC2	i	-0.72
COc1ccc(NC(=O)NCCc2c(C)nn(C)c2C)cc1OC	i	-0.8
C#CCOc1ccc(C2CC(=O)Nc3c2cnn3-c2nc3ccccc3s2)cc1OC (stereo unspecified)	i	1.3

Next section.
SMILES | Anaer choline gr | Anaer choline gr early
Cn1c(=O)c2nc(S(=O)(=O)CCC(=O)N3CCCC3)n(C)c2n(C)c1=O | i | 0.91
CCOC(=O)c1c(C)[nH]c(C(=O)N2CCC(CC(=O)NCc3ccc4c(c3)OCO4)CC2)c1C | i | 0.02
O=C(CCS(=O)(=O)c1ccc2c(c1)NC(=O)CS2)Nc1ccc(F)cc1F | i | 0.46
COc1cccc(-c2nn(C)c3sc(C(=O)N(C)Cc4ccccc4)cc23)c1 | i | 0.56
Cc1nnc2sc(-c3c[nH]c4ccccc34)nn12 | i | -2.1
CNS(=O)(=O)Cc1ccc2[nH]cc(CCN(C)C)c2c1 | i | 0.92&0.52&0.39&0.51
CCn1cnc2c(-c3ccc(C)cc3)csc2c1=O | i | 0.25
Cc1ccc2c(c1)C(C)(C)C(=O)N2CC(=O)N1CCCCC1 | i | -0.24
CCOc1ccc(NC(=O)C(C)Sc2nc3c(c(=O)[nH]2)CCCC3)cc1 (stereo unspecified) | i | 1
Cc1nc(Nc2ccccc2)nc(Nc2ccccc2)c1NC(=O)c1ccc(F)cc1 | i | 1.1
CCN1C(=O)c2cc(C(=O)NCCC3=CCCCC3)nn2CC1(C)C(=O)NC1CCCC1 (stereo unspecified) | i | 1
CCOC(=O)c1c(NC(=O)CCCc2nc(-c3cccnc3)no2)sc2c1CCC(C)C2 (stereo unspecified) | i | 0.23
COc1ccc(CSc2nccc3c2ccn3CC(=O)N2CCN(c3ccccn3)CC2)cc1 | i | 0.71
CCC(=O)Nc1cccc(-c2noc(C3CCCN(C(=O)c4ccc(OC)cc4)C3)n2)c1 (stereo unspecified) | i | -1.5
Cn1cc(C(=O)Nc2ccc(Br)cc2F)c2[nH]c(=O)n(-c3ccc(F)cc3)c(=O)c21 | i | 1
Cn1c(=O)c2nc(SCCN3CCCCC3)n(C)c2n(C)c1=O | i | 0.08
COc1ccc(OC)c(CC2C(=O)Nc3ccc(Cl)cc32)c1 (stereo unspecified) | i | -0.46
O=C(c1cn(-c2cc(N3CCOCC3)ncn2)cn1)N1CCSCC1 | i | -1.9
O=S(=O)(Cc1nc(-c2ccc3c(c2)OCO3)no1)c1ccc(F)cc1 | i | 0.95
CCOc1ccc(-c2nn3c(CSc4ccccc4)nnc3s2)cc1OC | i | 0.18
